MT1-MMP act inh: inhibitors of human MT1-MMP activation. P50281. HT1080 RFP-PRO-GFP cells, GFP/RFP ratio fluorescence, overnight; percent of plate control window, DMSO zero. actives 0.061% (n = 360,000). AID 651647. GFP/RFP ratio change, % at 20 µM;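 active = GFP/RFP ratio change of at least 30% with cell ATP level not reduced by more than half and red fluorescence within 50% of control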; note: strong numbers were not always called active
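Test system: HT1080 RFP-PRO-GFP cells; Benchmarks: DMSO and RFP-L50D-GFP cell wells; Timing: cells overnight before dosing, compound overnight, 37 °C, 5% CO2; Compound: one 20 µM compound dose with 1% DMSO; Read-out: GFP/RFP fluorescence ratio.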
HIV Env fusion: blocks HIV Env-driven cell-cell fusion; inhibition, % at 12.3 µM; actives 1.1% (n = 360,000); HeLa-JRFL Env/CEM21 cell fusion, luciferase;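 active = mean replicate inhibition score of at least 50 and every replicate individually at or above 50; inconclusive = only one of the two criteria met; inactive = mean below 50 and not all replicates reaching 50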;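 note: 0% = plate neutral controls and 100% = maraviroc near 300 nM; one replicate is shown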
eIF4H inh: inhibitors of RNA binding by human eIF4H. inhibition, % at 35 µM. Q15056. actives 0.94% (n = 290,000). AID 2012. eIF4H fluorescence polarization binding assay;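 active = 50% or more with normal probe brightness, or confirmed in later tests; inconclusive = above 50% with abnormal brightness, or retests that disagree; inactive = below 50% or failed in later tests; about a fifth of its hits are not listed in these tables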;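 note: calls also rest on retests at 20 µM and on dose response follow-up; 0% = protein and probe with vehicle and 100% = probe without protein; strong numbers were not always called active; many hits fall short of the cut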
Yeast UUG start: modulators of start codon recognition fidelity in yeast; S. cerevisiae UUG-firefly luciferase reporter, luminescence/redox ratio; activity score, % at 18.7 µM; actives 0.13% (n = 350,000); AID 602363;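 active = replicate mean at a twofold rise or more, about +100% in these data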;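 note: firefly luciferase made from a UUG start codon reports start codon fidelity; reporter light over untreated wells divided by growth signal over untreated wells; some hits fall short of that in this replicate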
Rce1 inhib: inhibitors of yeast Ras-converting enzyme; Q03530; actives 0.27% (n = 290,000); calls only; yeast membranes, quenched prenylated peptide cleavage fluorescence;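 active = fall in fluorescence gain of 50% or more versus controls, with final raw signal at or below 3038400; inconclusive = same 50% fall but final raw signal above 3038400; inactive = fall in fluorescence gain under 50%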;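 note: plate controls were neutral control wells for no effect and wells lacking membranes for full effect; tested at 10 µM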
Target sequence (Q03530 whole entry, looked up): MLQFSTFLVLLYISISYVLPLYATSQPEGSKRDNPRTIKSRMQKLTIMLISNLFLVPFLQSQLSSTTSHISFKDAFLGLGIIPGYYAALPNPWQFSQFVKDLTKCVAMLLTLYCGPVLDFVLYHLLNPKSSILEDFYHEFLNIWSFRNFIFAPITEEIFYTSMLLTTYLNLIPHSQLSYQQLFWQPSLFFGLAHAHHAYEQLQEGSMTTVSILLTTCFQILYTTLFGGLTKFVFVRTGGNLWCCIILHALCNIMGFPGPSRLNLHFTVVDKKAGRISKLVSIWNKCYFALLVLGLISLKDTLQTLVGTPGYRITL
CSC inhib: cancer stem cell inhibition; cancer stem cell-like cells viability, luminescence; inhibition, % at 7.5 µM; actives 1.1% (n = 300,000);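 active = mean at 75% or more and at least half the replicates too; inconclusive = mean and replicates disagree; tested in HMLE shEcad cells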;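 note: 0% = median of negative and 100% = median of positive control wells; the first replicate is given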
PABP polyA inh: blocks human PABP binding to poly(A) RNA; fluorescence polarization; actives 1% (n = 290,000); AID 2014; inhibition, % at 35 µM;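 active = 50% or more with normal probe brightness, or confirmed in later tests; inconclusive = above 50% with abnormal brightness, or retests that disagree; inactive = below 50% or failed in later tests; about a fifth of its hits are not listed in these tables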;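 note: calls also rest on retests at 20 µM and on dose response follow-up; controls were probe without protein and protein plus probe with vehicle; some compounds called inactive have numbers as strong as hits; many hits fall short of the cut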
eIF4H inh retest: second read-out of eIF4H inh, no call of its own (marks repeat the call); inhibition, %; compound at 20 µM; confirmation average;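 mean of two retest wells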
PABP polyA inh retest: further read-out of PABP polyA inh, marked with its call; inhibition, %; compound at 20 µM; confirmation repeats;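 mean of two retest wells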
MT1-MMP act inh RFP: second read-out of MT1-MMP act inh, no call of its own (marks repeat the call); RFP signal change, %; measured here: RFP expression control read;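 0 = vehicle wells; hits needed this value within 50% of zero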
Active calls of the source: *; i = inactive; ? = inconclusive; . = not tested or not shown. The list is partial; count on the stated rates, not on these rows.

A first look (5 entries):
SMILES	MT1-MMP act inh	MT1-MMP act inh RFP	HIV Env fusion	eIF4H inh	Yeast UUG start	Rce1 inhib	CSC inhib	PABP polyA inh	others
O=C(CNc1ccc2c(c1)OCO2)N/N=C\c1ccccc1Cl	-27	-1	8	71	-21	i	-9	-16	eIF4H inh retest=-11;PABP polyA inh retest=8
COC(=O)CCC/C=C1/SCC(NC(=O)c2ccccc2)C1NC(C)=O (configuration not stated)	1	3	8	-1	.	i	-1	-1
NC(=O)COc1ccc(C23CC4CC(CC(C4)C2)C3)cc1	-1	-1	-21	-3	-2	i	-5	13
COc1cccc(C=O)c1OCCCOc1cccc2cccnc12	3	-1	-93	1	6	i	37	-9
Cc1ccc(C(=O)OCC(=O)NCc2ccc3c(c2)OCO3)o1	-1	5	-10	.	-20	.	-1	.

The listing, from the first entry:
SMILES	MT1-MMP act inh	MT1-MMP act inh RFP	HIV Env fusion	eIF4H inh	Yeast UUG start	Rce1 inhib	CSC inhib	PABP polyA inh	others
O=C(CNc1ccc2c(c1)OCO2)N/N=C\c1ccccc1Cl	-27	-1	8	71	-21	i	-9	-16	eIF4H inh retest=-11;PABP polyA inh retest=8
COC(=O)CCC/C=C1/SCC(NC(=O)c2ccccc2)C1NC(C)=O (configuration not stated)	1	3	8	-1	.	i	-1	-1
NC(=O)COc1ccc(C23CC4CC(CC(C4)C2)C3)cc1	-1	-1	-21	-3	-2	i	-5	13
COc1cccc(C=O)c1OCCCOc1cccc2cccnc12	3	-1	-93	1	6	i	37	-9
Cc1ccc(C(=O)OCC(=O)NCc2ccc3c(c2)OCO3)o1	-1	5	-10	.	-20	.	-1	.
Cc1cnc(NC(=O)Nc2ccccc2)c(C)n1	2	1	13	-2	-15	i	-5	-2
O=C(COC(=O)C1CC1)Nc1nc(-c2ccc(F)c(F)c2)cs1	2	4	-26	.	-16	i	-9	.
CSc1ccc(OC2(C)CCN(Cc3ccccc3)C2)cc1 (configuration not stated)	4	5	12	.	-15	.	.	.
CCN(CC)C(=O)CC(c1cc(OC)c(OC)c(OC)c1)c1c(O)cc(OC)cc1OC (configuration not stated)	7	4	-17	-10	-15	i	-10	-1
COc1cc(C(=O)N/N=C/c2coc3ccccc3c2=O)cc(OC)c1OC	-4	0	16	-9	-5	i	-3	-3
CC(C)N1CN=C(Nc2nc3ccccc3o2)NC1	3	6	6	-7	.	i	-8	2
Cc1ccc(S(=O)(=O)NCCC(=O)NC2CCC(C)CC2)cc1 (configuration not stated)	0	3	-2	.	-1	.	.	.
O=C(CSc1nc2c(sc3ccccc32)c(=O)n1CCCN1CCCC1)NCc1ccco1	1	-1	2	22	0	i	18	-12
CC(C)P(=O)(Cc1cccc(C#N)c1)C(C)C	4	3	.	6	-1	i	-2	4
COc1ccc(S(=O)(=O)Nc2cc(C(=O)NCCCOC(C)C)ccc2N2CCOCC2)cc1	1	-1	14	0	.	i	-9	6
COc1cccc(NC(=O)CSc2nc3ccccc3nc2N2CCCC2)c1	0	-11	-47	5	-16	i	3	-2
CCOc1cc(NC(=S)NCCCN2CCOCC2)c(OCC)cc1NC(=O)C(C)C	-5	-1	-20	1	-15	i	-42	14
Cc1cccc(C)c1OCCNC(=O)C(=O)NCc1ccco1	3	-15	-5	-1	.	i	50	1
Cc1ccc(CNC(=O)CCC2CCCN(Cc3cccc4ncccc34)C2)o1 (configuration not stated)	-4	2	4	18	-13	i	0	22
Cc1ccc(-n2nnnc2SCC(=O)Nc2sccc2C#N)cc1	-6	4	.	41	-8	i	22	-4
CCN1C(=O)c2ccccc2S(=O)c2ccc(C(=O)NCCCN3CCCC3=O)cc21 (configuration not stated)	11	9	-27	-2	0	i	-13	-11
CSc1nc(C)nc(N/C=C(\C#N)S(=O)(=O)c2ccccc2Cl)n1	0	-1	13	-4	.	i	-12	1
O=C(C[n+]1ccccc1)Nc1c(Cl)cc(Cl)cc1Cl	2	2	11	1	.	i	-6	-1
Cc1cccc(NC(=O)Nc2nnc(N3CCCCC3C)s2)c1C (configuration not stated)	1	2	20	-4	-8	i	4	-1
CCOC(=O)C1=C[C@@H](C2CCCC2)N(S(=O)(=O)c2ccc([N+](=O)[O-])cc2)[C@H]1c1ccccc1	-7	-33	55*	.	-14	.	.	.

Remaining list, next part
SMILES	MT1-MMP act inh	MT1-MMP act inh RFP	HIV Env fusion	eIF4H inh	Yeast UUG start	Rce1 inhib	CSC inhib	PABP polyA inh	others
Cc1ccc(-c2nn(-c3cccc(F)c3)cc2CN(Cc2nccn2C)C(C)C)o1	-6	0	-13	17	.	i	10	0
CCCCOc1ccc(/C(O)=C2/C(=O)C(=O)N(Cc3cccnc3)C2c2ccncc2)c(C)c1 (configuration not stated)	1	0	11	11	.	i	-5	-4
Cc1cc(C)c2c(n1)sc1c(-c3ccccc3)c(C#N)c(N)nc12	3	1	.	-3	.	i	1	3
CC1(C)CC(=O)C=C(NC2CCCC(O)C2)C1 (configuration not stated)	5	3	-23	.	-10	i	-4	.
NC(=O)c1nnn(-c2cccc(C(F)(F)F)c2)c1-c1ccccc1	1	0	4	-4	.	i	5	-4
OC(CSc1ccccc1)CN1CCN(c2cccc(Cl)c2)CC1 (configuration not stated)	1	5	-1	.	-9	.	.	.
COc1ccc(OCC(=O)Nc2cc(OC)cc(OC)c2)cc1	6	1	26	7	-3	i	-6	1
CCC1(c2ccc(Cl)cc2)NC(=O)N(Cc2ccc(C(=O)OC)cc2)C1=O (configuration not stated)	-8	-24	3	10	.	i	5	-5
CCCn1c(CCNC(=O)c2cccs2)nc2ccccc21	-2	5	-6	-11	-11	i	-4	-5
Cc1ccc(NC(=O)c2cc(S(=O)(=O)NCCC3=CCCCC3)ccc2F)cc1F	5	-22	21	-7	.	i	13	0
O=C(Cn1nnc2c(cnn2-c2ccccc2)c1=O)NCc1cccs1	-1	-1	.	-9	-8	i	.	-5
C=CCn1c(CNC(=O)c2cccs2)nnc1SCC(=O)c1ccc(Br)cc1	-1	0	-40	11	-12	i	-11	1
O=C(/C=C\Nc1ccc(S(=O)(=O)Nc2ncccn2)cc1)c1cccc2ccccc12	-7	0	-39	-2	.	i	-10	6
Cc1cc(C(=O)CSc2ncccn2)c(C)n1Cc1ccco1	-1	-1	-43	12	-10	i	2	2
Cc1occc1-c1nnc(SCC(=O)Nc2nc(-c3ccccc3)cs2)o1	3	-1	.	5	-9	i	-4	-1
COc1cccc(C(=O)Nc2ccccc2N2CCN(C(=O)c3ccccc3)CC2)c1	1	-3	.	.	6	.	-4	.
COc1cc(C(=O)Nn2c(C)nc3ccccc3c2=O)cc(OC)c1OC	3	1	-9	-10	-14	i	-5	0
O=C(CS(=O)CC(=O)N(c1cccc(F)c1)C(C(=O)NC1CCCCC1)c1ccco1)Nc1ccc(F)cc1 (configuration not stated)	-4	-3	17	-3	15	i	-8	19
COc1ncnc2c1oc1nc(CC(C)C)c3c(c12)CCCC3	-3	1	25	-9	-6	.	.	-2
CCCc1[nH]nc2c1C(c1ccc(O)c(OC)c1)C(C#N)=C(N)O2 (configuration not stated)	8	1	.	-2	.	i	-1	0
CCC(C)(C)n1nnnc1C(C(C)C)N(Cc1ccco1)Cc1cc2cc3c(cc2[nH]c1=O)OCO3 (configuration not stated)	-9	-5	32	87	8	.	13	59*	eIF4H inh retest=46;PABP polyA inh retest=52*
O=C(COn1nnc2ccc(Cl)cc21)NC1CCS(=O)(=O)C1 (configuration not stated)	-1	2	8	.	-18	.	.	.
O=C1OC(Nc2ccc(F)c([N+](=O)[O-])c2)c2ccccc21 (configuration not stated)	3	2	9	5	.	i	-3	-4
O=C(NCc1ccccn1)c1cccc(NS(=O)(=O)c2cccc(F)c2)c1	5	3	-5	3	-3	i	-7	-6
CCOc1ccc(S(=O)(=O)NCCC(=O)N2CC(C)CC(C)C2)cc1 (configuration not stated)	-3	-6	-15	.	-5	i	-13	.

(listing goes on)
SMILES	MT1-MMP act inh	MT1-MMP act inh RFP	HIV Env fusion	eIF4H inh	Yeast UUG start	Rce1 inhib	CSC inhib	PABP polyA inh	others
CCOC(=O)c1ccc(COc2nc3ccccc3nc2-c2ccccc2NC(C)=O)o1	4	2	.	-4	-14	i	-6	-2
CCOc1cc(CN2CCN(CCc3ccccc3)C(CCO)C2)ccc1OC (configuration not stated)	-5	-1	2	4	.	i	6	-7
Cc1cccc(C2=N/C(=C\c3cccnc3)C(=O)O2)c1	-5	2	.	-7	-18	i	-4	2
COCCNC(=O)C(c1ccccc1C)N(CCOC)C(=O)Cn1nnc2ccccc21 (configuration not stated)	12	4	23	6	-15	i	.	-1
O=C(CSc1n[nH]c(-c2ccncc2)n1)Nc1ccccc1C(F)(F)F	-7	-5	12	5	5	i	-2	4
Nc1c(-c2ccccc2)c(CSc2nc3ccccc3[nH]2)nn1-c1ccc(C(=O)O)cc1	1	2	-5	0	.	i	-5	-6
Cc1cccc(C)c1NC(=S)N(C)CCc1ccccn1	1	1	.	-22	-17	i	11	-10
O=C(Nc1nnc(-c2ccco2)o1)c1ccc(Br)s1	2	3	-1	.	-29	.	.	.
Cc1cccc(-c2noc(-c3ccc(F)cc3)n2)c1	-1	-2	-327	1	-25	i	-3	-8
CC[C@]12c3[nH]c4cc(-c5ccco5)ccc4c3CCN1C(=O)[C@@H](CC(=O)NCCc1ccccn1)C[C@@H]2C(=O)N1CCN(C(=O)c2ccco2)CC1	-3	-3	-1	.	6	.	.	.
COc1ccccc1N1CCN(S(=O)(=O)CCNC(=O)c2ccccc2Br)CC1	1	0	-1	-10	-6	i	-18	12
c1ccc(Cn2nnnc2-c2ccco2)cc1	-1	0	-15	-6	-20	i	17	4
C/C(CC(=O)Nc1ccc2c(c1)OCCO2)=N\NC(=O)Cc1ccccc1	3	3	12	-4	-11	i	-7	18
O=C(c1ccc(-c2ccccc2Cl)o1)N1CCN(S(=O)(=O)c2cccs2)CC1	-1	-4	-81	.	.	i	27	.
CCc1nc(SCC(=O)Nc2ccc([N+](=O)[O-])cc2)n[nH]1	2	3	-9	-5	0	i	-9	3
C=C(C)Cc1c(C)c(C#N)c2[nH]c3ccccc3n2c1=O	4	-16	23	4	0	?	10	-4
O=C(C1CCCN(S(=O)(=O)c2ccc(Br)s2)C1)N1CCCCCC1 (configuration not stated)	0	-8	.	4	-8	i	-3	-8
COc1ccc(-c2cc(NC=O)c3ncc(-c4cccc(C(=O)NCCN(C)C)c4)n3c2)c(OC)c1	-5	1	4	.	-11	.	.	.
COc1ccc(OC)c2c(C)cc(N3CCCCCC3)nc12	2	6	-28	-5	31	i	1	8
CC(C)CCOc1ccc(C2CC(=O)N(C)C2=O)cc1 (configuration not stated)	6	4	15	-7	.	i	-4	2
COC(=O)c1nn(-c2ccc(C)cc2)c2nnc(Cc3ccccc3)c(=O)n12	3	1	-18	-6	.	i	-17	-3
O=C1C2C3c4ccccc4C(c4ccccc43)C2C(=O)N1c1cccc2cccnc12 (configuration not stated)	-1	5	-129	-1	-9	i	8	5
CCCOc1ccc(C2/C(=C(\O)c3c(C)[nH]c(C(=O)OC)c3C)C(=O)C(=O)N2CCN(C)C)cc1 (configuration not stated)	7	1	.	-6	-10	i	3	17
O=C(O)CNc1nc(-c2ccccc2)c2cc([N+](=O)[O-])ccc2n1	0	3	-15	2	2	i	.	5
CN1CCN(C(=O)c2ccc3c(c2)NC(=O)C(N2CCOCC2)S3)CC1 (configuration not stated)	2	4	.	12	-12	i	-1	-1

High-throughput results as filed in PubChem.
